# Vaccinia inh = blocks a specific stage of Vaccinia orthopoxvirus infection, primary screen, cell-based, single point. Vaccinia-infected cells, mCherry/Venus stage reporter fluorescence; stronger effect = lower value; some inactives read as strong as hits. activity change (mCherry), % (concentration not given with the values). actives 0.01% (n = 89,000). AID 1053133, 2014;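 active = mCherry past -33% and 40 or more points under the early reporter, replicates agreeing; inconclusive = past -33% without that gap or agreement; tested in A549 cells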;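 also: scaled between vehicle wells and reference inhibitor wells; 23 nL library stock went into each well; one replicate is shown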
# Vaccinia inh Venus = recorded beside Vaccinia inh, whose call it bears; activity change (Venus), %; measured here: Venus reporter, other viral stage;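 negative = less Venus signal; first of two replicates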
# Numbers without * were called inactive; ? = inconclusive; / = not tested or not shown; & = joins results of further samples. The list is partial. The share of hits here may be higher or lower than overall.
no.	smiles	Vaccinia inh	Vaccinia inh Venus
1	CCCN1C[C@H](C)[C@H](OC)CN(C)C(=O)c2ccc(NC(=O)COC)cc2OC[C@H]1C	-11.0	-8.8
2	C[C@H]1CN([C@@H](C)CO)C(=O)c2cccc(NC(=O)Nc3ccc(C(F)(F)F)cc3)c2O[C@@H]1CN(C)S(=O)(=O)c1ccc(F)cc1	?	/
3	Cc1ccc(S(=O)(=O)NCC[C@H]2CC[C@@H](NC(=O)Nc3ccccc3F)[C@@H](CO)O2)cc1	-4.7	4.5
4	O=S(=O)(NC[C@H]1[C@@H](c2ccccc2)[C@@H](CO)N1CC1CC1)c1ccccc1	-2.8	-0.4
5	C[C@H]1CN([C@@H](C)CO)S(=O)(=O)c2ccc(C#CC3(O)CCCC3)cc2O[C@@H]1CN(C)C	4.0	0.9
6	CCCC#Cc1cnc2c(c1)C(=O)N([C@H](C)CO)C[C@H](C)[C@@H](CN(C)C(=O)Cc1cccnc1)O2	7.5	0.7
7	C[C@@H]1CN([C@@H](C)CO)C(=O)CCCn2cc(nn2)CO[C@H]1CN(C)Cc1cccnc1	6.7	10.4
8	COc1ccc(CN(C)C[C@@H]2Oc3c(NS(=O)(=O)c4c(C)noc4C)cccc3C(=O)N([C@H](C)CO)C[C@@H]2C)cc1	6.3	-0.5
9	COc1ccc(CN(C)C[C@@H]2Oc3ccc(NS(=O)(=O)c4c(C)noc4C)cc3CC(=O)N([C@@H](C)CO)C[C@@H]2C)cc1	-5.8	-3.7
10	C[C@H](CO)N1C[C@H](C)[C@@H](CN(C)CC2CCCCC2)Oc2c(NC(=O)Nc3ccc(C(F)(F)F)cc3)cccc2C1=O	-6.4	-7.2
11	C[C@H](CO)N1C[C@H](C)[C@@H](CN(C)C(=O)Cc2ccccc2)OCc2ccccc2-c2ccccc2C1=O	27.6	21.7
12	COc1ccc(CN(C)C[C@H]2Oc3ccc(NC(=O)C4CC4)cc3CC(=O)N([C@@H](C)CO)C[C@@H]2C)cc1	-7.5	1.5
13	Cc1noc(C)c1NC(=O)Nc1ccc2c(c1)C(=O)N([C@@H](C)CO)C[C@@H](C)[C@H](CN(C)CC1CCCCC1)OCCCC[C@H](C)O2	10.8	8.9
14	C[C@H]1CCCCO[C@H](CN(C)S(=O)(=O)c2cccs2)[C@@H](C)CN([C@@H](C)CO)C(=O)c2cc(NC(=O)C3CCCCC3)ccc2O1	-26.0	-27.9
15	CC=Cc1ccc2n(c1=O)C[C@@H]1[C@@H](CO)[C@H](C(=O)NCC(F)(F)F)[C@H]2N1C(=O)C1CCCCC1 (mixture of isomers)	5.2	4.2
16	O=C(Cc1cccnc1)N1CC(=O)N2[C@H](CO)[C@@H](c3ccc(C#CC4CCCC4)cc3)[C@H]2C1	-13.5	-9.8
17	COc1ccc(NC(=O)N(C)C[C@@H]2Oc3ccc(NC(=O)Nc4ccc5c(c4)OCO5)cc3C(=O)N([C@H](C)CO)C[C@@H]2C)cc1	14.9	4.0
18	CCCNC(=O)N1CC2(CN(Cc3cccnc3)C2)c2c(n(C)c3cc(OC)ccc23)[C@@H]1CO	6.5	8.9
19	Cc1ccccc1S(=O)(=O)N[C@@H]1CC[C@@H](CCn2cc(-c3ccccc3)nn2)O[C@@H]1CO	-7.5	-5.2
20	O=C(CN1CCOCC1)NCC[C@H]1CC[C@H](NC(=O)Nc2ccc(C(F)(F)F)cc2)[C@@H](CO)O1	0.4	8.2

# In a second layout: entries from further up
# Every second line gives: Vaccinia inh	Vaccinia inh Venus
(12) COc1ccc(CN(C)C[C@H]2Oc3ccc(NC(=O)C4CC4)cc3CC(=O)N([C@@H](C)CO)C[C@@H]2C)cc1
 : -7.5	1.5
(13) Cc1noc(C)c1NC(=O)Nc1ccc2c(c1)C(=O)N([C@@H](C)CO)C[C@@H](C)[C@H](CN(C)CC1CCCCC1)OCCCC[C@H](C)O2
 : 10.8	8.9
(14) C[C@H]1CCCCO[C@H](CN(C)S(=O)(=O)c2cccs2)[C@@H](C)CN([C@@H](C)CO)C(=O)c2cc(NC(=O)C3CCCCC3)ccc2O1
 : -26.0	-27.9

# The list goes on.
no.	smiles	Vaccinia inh	Vaccinia inh Venus
21	COc1ccc(NC(=O)N2CCC3(CC2)CN(C(=O)C2CCC2)[C@@H](CO)c2c3c3ccc(OC)cc3n2C)cc1	-22.5	-21.3
22	CC(C)C(=O)Nc1ccc2c(c1)C(=O)N(C)[C@H]1CC[C@H](CC(=O)Nc3ccc(Cl)cc3)O[C@@H]1CO2	13.8	5.5
23	C[C@@H]1CN([C@H](C)CO)C(=O)c2cccc(NC(=O)C3CCOCC3)c2O[C@H]1CN(C)Cc1ccncc1	20.1	9.5
24	COc1ccc(NC(=O)N(C)C[C@@H]2Oc3ccc(NS(=O)(=O)c4ccc(OC)cc4)cc3C(=O)N([C@H](C)CO)C[C@H]2C)cc1	-9.0	-7.9
25	C[C@@H]1CN([C@H](C)CO)C(=O)Cc2cc(NC(=O)C3CCCCC3)ccc2O[C@H]1CN(C)S(=O)(=O)c1ccc(Cl)cc1	-14.0	-11.7
26	O=C(Nc1ccc2c(c1)OCO2)N[C@@H]1C=C[C@H](CC(=O)N2CCN(c3ccccc3)CC2)O[C@@H]1CO	-0.3	11.3
27	C[C@H](CO)N1C[C@H](C)[C@@H](CN(C)CC2CCCCC2)Oc2ccc(NS(C)(=O)=O)cc2CC1=O	-19.3	-13.1
28	COc1ccc(NC(=O)N(C)C[C@H]2Oc3ccc(NC(=O)C4CC4)cc3C(=O)N([C@H](C)CO)C[C@H]2C)cc1	4.0	9.3
29	COc1ccc2c3c([nH]c2c1)[C@@H](CO)N(CC1CCOCC1)CC31CN(C(=O)C2CC2)C1	10.7	18.9
30	C[C@@H]1CN([C@@H](C)CO)C(=O)CCCn2cc(nn2)CO[C@@H]1CN(C)Cc1ccccc1	4.2	5.3
31	C[C@H](CO)N1C[C@H](C)[C@H](CN(C)Cc2ccc(Cl)c(Cl)c2)OCCCC[C@H](C)Oc2ccc(NS(=O)(=O)c3ccc(F)cc3)cc2C1=O	?	/
32	CCCC#Cc1cnc2c(c1)C(=O)N([C@H](C)CO)C[C@@H](C)[C@H](CN(C)Cc1ccncc1)O2	9.8	-4.1
33	C[C@@H]1CCCCO[C@@H](CN(C)S(=O)(=O)c2cccs2)[C@@H](C)CN([C@@H](C)CO)C(=O)c2cc(NC(=O)Nc3ccc4c(c3)OCO4)ccc2O1	12.6	11.3
34	C[C@@H]1CN([C@H](C)CO)C(=O)Cc2cc(NC(=O)Nc3ccc4c(c3)OCO4)ccc2O[C@H]1CN(C)S(C)(=O)=O	9.4	0.9
35	C[C@H]1CN([C@@H](C)CO)C(=O)Cc2cc(NC(=O)CCCN(C)C)ccc2O[C@H]1CN(C)S(=O)(=O)c1ccc(F)cc1	-6.2	-0.5
36	O=C(C[C@H]1CC[C@@H](NC(=O)C2CCOCC2)[C@H](CO)O1)NCC1CC1	10.4	1.4
37	CCCNC(=O)C[C@H]1CC[C@H]2[C@@H](COC[C@H](O)CN2Cc2cccc(F)c2)O1	8.6	12.3
38	C[C@H](CO)N1C[C@H](C)[C@@H](CN(C)Cc2ccc(Cl)c(Cl)c2)Oc2ccc(NS(C)(=O)=O)cc2CC1=O	?	/
39	COc1ccc(S(=O)(=O)N(C)C[C@H]2Oc3ccc(NC(=O)NC4CCCCC4)cc3CC(=O)N([C@H](C)CO)C[C@H]2C)cc1	5.8	-9.2
40	CC(C)NC(=O)Nc1ccc2c(c1)C(=O)N([C@H](C)CO)C[C@H](C)[C@H](CN(C)Cc1ccc3c(c1)OCO3)O2	35.5	22.3
41	N#Cc1cccc(-c2ccc3c(c2)[C@@H]2[C@@H](CCN2S(=O)(=O)c2ccccc2)[C@@H](CO)N3)c1	-10.9	-14.3
42	CC(C)CN(C[C@@H]1N[C@@H](CO)[C@H]1c1ccccc1)C(=O)CN(C)C	-2.2	-10.4
43	Cc1ccccc1S(=O)(=O)NCC[C@@H]1CC[C@H](NC(=O)C2CCCCC2)[C@H](CO)O1	7.0	-4.6
44	O=C(NC[C@@H]1CC[C@@H]2[C@@H](CN2Cc2ccc(Oc3ccccc3)cc2)O1)C1CCOCC1	11.8	2.4
45	C[C@@H]1CN([C@H](C)CO)C(=O)c2cc(Br)cnc2O[C@@H]1CN(C)C(=O)c1ccc(F)cc1	-0.9	3.9
46	N#C[C@@H]1[C@H](c2ccc(C#Cc3ccccc3F)cc2)[C@H](CO)N1C(=O)c1cccnc1	?	/
47	O=C(C[C@@H]1C=C[C@@H](NC(=O)Nc2cc(F)ccc2F)[C@H](CO)O1)NCc1ccc2c(c1)OCO2	8.6	7.4
48	C[C@@H]1CCCCO[C@H](CN(C)C(=O)Cc2ccccc2)[C@@H](C)CN([C@H](C)CO)C(=O)c2cc(NC(=O)Nc3cccc4ccccc34)ccc2O1	31.6	12.1
49	COc1ccc(NC(=O)N(C)C[C@H]2OCCCC[C@@H](C)Oc3ccc(NC(=O)C4CCCCC4)cc3C(=O)N([C@H](C)CO)C[C@@H]2C)cc1	-10.6	-5.4
50	CCCN(C)C[C@H]1Oc2cc(-c3cncnc3)ccc2S(=O)(=O)N([C@@H](C)CO)C[C@H]1C	17.8	2.5
51	OC[C@H]1[C@H](c2ccc(-c3cccnc3)cc2)[C@H]2CN(CC3CC3)CCCCN21	13.6	0.0
52	CO[C@H]1CN(C)C(=O)c2cc(NS(C)(=O)=O)ccc2OC[C@@H](C)N(C(=O)C2CC2)C[C@H]1C	10.8	7.8
53	COc1ccc(S(=O)(=O)N(C)C[C@@H]2OCCCC[C@@H](C)Oc3ccc(NC(=O)Nc4ccc(C(F)(F)F)cc4)cc3C(=O)N([C@H](C)CO)C[C@H]2C)cc1	-2.8	5.2
54	COc1ccc(NC(=O)Nc2ccc3c(c2)C(=O)N([C@H](C)CO)C[C@@H](C)[C@H](CN(C)C(=O)Nc2ccccc2)OCCCC[C@@H](C)O3)cc1	-25.2	-20.3
55	C[C@H]1CN([C@@H](C)CO)C(=O)c2cc(NC(=O)C3CC3)ccc2O[C@H]1CN(C)Cc1ccc(C(=O)Nc2ccccc2N)cc1	1.8	2.3
56	COc1ccc(NC(=O)Nc2ccc3c(c2)C(=O)N([C@H](C)CO)C[C@@H](C)[C@H](CN(C)S(=O)(=O)c2ccc(F)cc2)OCCCC[C@H](C)O3)cc1	13.1	8.7
57	COc1ccc(NC(=O)N(C)C[C@@H]2Oc3c(NC(=O)C4CCOCC4)cccc3C(=O)N([C@H](C)CO)C[C@H]2C)cc1	6.7	-1.0
58	COCC(=O)Nc1ccc2c(c1)OC[C@@H](C)N(C(=O)Cc1ccccn1)C[C@H](C)[C@@H](OC)CN(C)C2=O	10.8	11.7
59	CS(=O)(=O)N1[C@H](C#N)[C@@H](c2ccccc2)[C@@H]1CO	13.8	12.7
60	O=C(NCCCN1CCOCC1)[C@@H]1[C@@H](CO)[C@@H]2Cn3c(ccc(C4=CCCCC4)c3=O)[C@H]1N2	2.3	1.0
61	C[C@H](CO)N1C[C@H](C)[C@@H](CN(C)CC2CCCCC2)OCCCC[C@H](C)Oc2ccc(NS(C)(=O)=O)cc2C1=O	5.6	2.1
62	COCC(=O)N1CC2(C1)[C@@H](c1ccc(-c3cccc(F)c3)cc1)[C@@H](CO)N2C(=O)COC	8.5	3.6
63	C[C@H](CO)N1C[C@H](C)[C@H](CN(C)Cc2ccncc2)Oc2ncc(Br)cc2C1=O	20.0&20.7	7.3&4.5
64	Cc1noc(C)c1NC(=O)N(C)C[C@H]1Oc2c(NC(=O)c3cnccn3)cccc2C(=O)N([C@@H](C)CO)C[C@@H]1C	17.8	18.1
65	CCCNC(=O)N1C[C@@H]2[C@H](c3ccccc31)[C@H](CO)N2Cc1ccccc1F	2.0	-2.7
66	C[C@@H]1CN([C@@H](C)CO)C(=O)c2cccc(NC(=O)CCCCCC(=O)Nc3ccccc3N)c2O[C@H]1CN(C)S(=O)(=O)c1cn(C)cn1	-2.9	-3.1
67	O=C(C1CCC1)N1CC2(C1)[C@H](c1ccccc1)[C@H](CO)N2Cc1nccs1	8.7	4.1
68	CN(C)C(=O)[C@@H]1[C@@H](CO)[C@@H]2Cn3c(ccc(C4=CCCCC4)c3=O)[C@@H]2N1Cc1ccc2c(c1)OCO2	12.0	4.7
69	C[C@@H]1CCCCO[C@@H](CN(C)S(=O)(=O)c2ccc(F)cc2)[C@@H](C)CN([C@H](C)CO)C(=O)c2cc(N(C)C)ccc2O1	-13.4&15.0	-9.6&-1.8
70	C[C@H](CO)N1C[C@H](C)[C@@H](CN(C)CC2CC2)OCCCC[C@H](C)Oc2ccc(NC(=O)c3ccncc3)cc2C1=O	17.8	14.0

# The list continues:
no.	smiles	Vaccinia inh	Vaccinia inh Venus
71	C[C@@H]1CN([C@@H](C)CO)C(=O)c2cc(NS(=O)(=O)c3ccccc3)ccc2O[C@@H]1CN(C)S(=O)(=O)c1ccccc1	-0.4	-2.9
72	C[C@@H]1CN([C@H](C)CO)C(=O)c2cc(C#Cc3ccccn3)cnc2O[C@@H]1CN(C)Cc1ccncc1	28.7	24.6
73	CCC(=O)N1CC2(CCN(C(=O)Nc3ccccc3F)CC2)c2c([nH]c3cc(OC)ccc23)[C@@H]1CO	-30.9	-30.7
74	CN(C)C(=O)c1ccc(-c2ccc([C@H]3[C@@H](CO)N4CCCCN(CCC(F)(F)F)C[C@H]34)cc2)cc1	-2.1	-5.9
75	C[C@@H]1CCCCO[C@H](CN(C)Cc2ccccc2)[C@@H](C)CN([C@H](C)CO)C(=O)c2cc(NC(=O)Cc3ccccc3)ccc2O1	-6.0	4.4

# Another view of part of the listing above.
73. CCC(=O)N1CC2(CCN(C(=O)Nc3ccccc3F)CC2)c2c([nH]c3cc(OC)ccc23)[C@@H]1CO
74. CN(C)C(=O)c1ccc(-c2ccc([C@H]3[C@@H](CO)N4CCCCN(CCC(F)(F)F)C[C@H]34)cc2)cc1
75. C[C@@H]1CCCCO[C@H](CN(C)Cc2ccccc2)[C@@H](C)CN([C@H](C)CO)C(=O)c2cc(NC(=O)Cc3ccccc3)ccc2O1

compound no.	73	74	75
Vaccinia inh	-30.9	-2.1	-6.0
Vaccinia inh Venus	-30.7	-5.9	4.4

# High-throughput results: PubChem, Broad Institute
